# CtBP-E1A blk: CtBP/E1A binding inhibition; AlphaScreen GST-E1A/His-CtBP binding, 1536-well; hits give low values; control for the full effect not named in the record; activity change, % (test concentration not listed); 340,000 compounds, 0.49% hits; in the data active means activity change below about -65%; inconclusive means about -30% to -65%; inactive means above about -30%; further: on the % scale 0 is the no-effect control and ±100 the full control effect
#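 Protein mix (5X: 125 nM each GST-E1A, His-CtBP) was incubated with pinned compound 2 h at 37 deg C in dark, in 50 mM Tris pH 8.0 buffer with 300 mM NaCl. Glutathione donor and nickel acceptor beads followed; AlphaScreen signal read after 1 h.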
# PINK1 modulator: changes PINK1 expression; AID 624263; Potency, µM (top dose mostly 76.6 µM), inactives show top-dose activation (PINK1 increase), hits mostly activators; 410,000 compounds, 0.2% hits; PINK1 immunofluorescence, high-content cytometry, 24 h; active = well fitted activation curve with a large enough effect; inconclusive = small, poorly fitted or top-dose-only effect; inactive = flat fitted curve, though single readings scatter; cell line not stated here;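 further: potency means the concentration at half of the fitted maximal effect; % of control where 0% means no effect; nearly all actives have a fitted effect of over 65% in size; a mitochondrial uncoupler was the plate control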
#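 Stable cell line, 250 cells/well, 12 h attachment; compounds pinned at 5 concentrations, 24 h; CCCP control. Fixed with nuclear dye, primary antibodies 12 h at 10 degrees C, secondary plus cell stain; laser-scanning cytometer read.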
# Sfp inh: blocks B. subtilis Sfp PPTase activity. Q9F4F7. Potency, µM, inactives show max response, negative = inhibition, actives largely listed as inhibitors. 310,000 compounds, 3.5% hits. Biochemical Sfp PPTase activity, qHTS; active means well fitted inhibition curve with a large enough effect; inconclusive means small, poorly fitted or top-dose-only effect, or another doubt; inactive means no such curve, though single readings can be large or run the other way;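 further: the enzyme is Sfp with the accession as filed and its product quenches rhodamine fluorescence; potency means the concentration at half of the fitted maximal effect; 0% = enzyme reaction without inhibitor and -100% = no enzyme wells; top concentration of the series not given in the record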
#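 Sfp 15 nM + cpd, 15 min RT; start w/ rhodamine-CoA 5 uM, BHQ-2-YbbR 12.5 uM (final); 50 mM Hepes pH 7.6, 10 mM MgCl2, 0.01% NP-40, 0.01% BSA; read 525/598 nm at 0 and 30 min.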
# D2 potentiator: human D2 receptor positive allosteric modulation | P14416 | DiscoveRx D2 beta-arrestin cells, luminescence, 90 min; 100% = 57 uM dopamine signal | potentiation, % (concentration not given with the values) | 360,000 compounds, 0.23% hits | AID 624464; active = potentiation of 50% or more; inconclusive = 30% to 50%; inactive = 30% or less;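 further: tested on top of an EC20 dose of dopamine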
#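 PathHunter beta-arrestin assay in DiscoveRx D2 cells. Compounds were added with an EC20 of dopamine (50 nM final) for 90 min at 37 deg C. Luminescence was read 1 h after detection reagent, with 57 uM dopamine as the EC100 control.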
# Six1-Eya2 blk: blocks human Six1 binding to Eya2; activity change, % (test concentration not listed); 360,000 compounds, 0.56% hits; AID 651725; Q15475+O00167; AlphaScreen GST-Six1/His-Eya2 binding, biochemical; hits give low values; control for the full effect not named in the record; in the data active = activity change below about -65%; inconclusive = about -30% to -65%; inactive = above about -30%; further: on the % scale 0 is the no-effect control and ±100 the full control effect
#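 Homogeneous AlphaScreen proximity assay pairing GST-Six1 with His-tagged Eya2 (added as 5X mix: 250 nM and 500 nM) in 50 mM Tris pH 8.0, 300 mM NaCl, 1 mM TCEP. Glutathione donor and nickel acceptor beads; 1 h, 37 °C, dark.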
# D2 agonist: activates the human D2 dopamine receptor | DiscoveRx PathHunter D2 beta-arrestin, luminescence, 90 min; 100% = 57 uM dopamine signal | 360,000 compounds, 0.084% hits | activation, % (concentration not given with the values) | P14416; in the data active = activation above about 40%; inconclusive = about 15% to 40%; inactive = below about 15%; further: the text of the record calls up to 30% inactive
#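 DiscoveRx PathHunter D2 beta-arrestin cells (2,100/well) attached overnight, then compound-stimulated 90 min at 37 C in HBSS/10 mM HEPES/0.1% Tween-20 buffer; beta-galactosidase complementation read by luminescence after 1 h at ambient temperature. Dopamine 57 uM final (EC100) as control.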
# TRPV1 PAM: human TRPV1 potentiation; Q8NER1; TRPV1-expressing cells, Fluo-8 calcium influx, capsaicin EC20 potentiation; host cell line not named in the record; control for the full effect not named in the record; potentiation, % at 8.33 µM; 320,000 compounds, 0.02% hits; AID 540277; active means potentiation above 80%; inconclusive means 30% to 80%; inactive means below 30%; further: 0% is about no effect
# Target sequence (Q8NER1 whole entry, looked up): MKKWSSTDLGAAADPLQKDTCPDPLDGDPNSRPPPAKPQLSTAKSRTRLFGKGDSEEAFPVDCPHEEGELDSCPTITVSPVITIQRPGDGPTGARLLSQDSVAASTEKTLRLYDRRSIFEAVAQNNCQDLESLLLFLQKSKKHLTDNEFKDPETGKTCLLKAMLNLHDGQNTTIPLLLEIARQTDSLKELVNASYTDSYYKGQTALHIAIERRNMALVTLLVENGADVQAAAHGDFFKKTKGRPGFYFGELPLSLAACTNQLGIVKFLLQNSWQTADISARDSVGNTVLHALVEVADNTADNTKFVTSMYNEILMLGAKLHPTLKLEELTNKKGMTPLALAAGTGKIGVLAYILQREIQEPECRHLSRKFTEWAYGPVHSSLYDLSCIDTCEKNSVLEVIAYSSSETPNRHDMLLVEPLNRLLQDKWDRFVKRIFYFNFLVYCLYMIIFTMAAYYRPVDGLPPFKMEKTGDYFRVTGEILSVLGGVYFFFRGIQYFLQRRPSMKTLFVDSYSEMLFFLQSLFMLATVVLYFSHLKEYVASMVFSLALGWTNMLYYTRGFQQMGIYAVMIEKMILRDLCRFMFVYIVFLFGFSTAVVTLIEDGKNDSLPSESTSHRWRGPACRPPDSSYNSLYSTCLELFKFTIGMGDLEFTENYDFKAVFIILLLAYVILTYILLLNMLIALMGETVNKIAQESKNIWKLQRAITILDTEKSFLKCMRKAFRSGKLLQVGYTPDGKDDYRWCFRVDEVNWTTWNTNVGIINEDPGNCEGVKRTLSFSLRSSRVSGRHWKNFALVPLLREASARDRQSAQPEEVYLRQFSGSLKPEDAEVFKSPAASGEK
#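 Fluo-8 calcium influx in TRPV1-expressing cells, kinetic read (ex 480/em 520 nm). Compound added and read 3 min for agonist activity, followed by capsaicin at EC20 final and 2 min further read for enhancement.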
# Numbers without * were called inactive; ? = inconclusive; / = no result given; & = joins results of further samples; [ ] = dose if it differs, or a comment.
# Each structure is followed by: PINK1 modulator, TRPV1 PAM, D2 agonist, Sfp inh, Six1-Eya2 blk, D2 potentiator, CtBP-E1A blk
CCc1cccc(C)c1NC(=S)N(CCN(C)C)C(C)c1ccco1 (stereo unspecified)
    -0.9%, 28, -3.8, 13%, 1, -14, /
COCCCNC(=O)Cc1c(C)c2c(cc(C)c3c(C)c(C)oc32)oc1=O
    11%, -12, -1.4, -6%, -1, 0, 7
NC(=O)c1ccsc1NC(=O)COC(=O)c1cccnc1Cl
    ?, /, 0.8, /, -3, -16, 2
Clc1cc(Br)ccc1OCCOCCN1CCCC1
    0.1%, 11, -6.0, -9%, 3, -4, -4
N#Cc1ccc(C(=O)OCCc2cc3ccccc3c(=O)o2)cc1
    2.3%, 5, 0.2, /, 6, -1, 7
Cc1ccc(C(=O)CC(=O)c2ccccc2C)c(O)c1
    27%, -1, -8.5, 4%, 4, -21, 1
Cc1ccc(C(=O)N2CC=C(c3ccccc3)CC2)s1
    -2.6%, -13, 6.5, /, 0, 2, 18
Fc1ccc(-c2nc3c(-c4ccc(Cl)cc4)cnn3cc2CCN2CCOCC2)cc1
    2.7%, 4, 2.7, 18%, 6, -2, 7
N#CC1(NC(=O)COC(=O)C23CC4CC(CC(O)(C4)C2)C3)CCCCC1
    -0.8%, 13, -1.9, 12%, -10, -9, 5
COc1ccc(CCNC(=O)CSc2nnc3ccc(-c4ccccn4)nn23)cc1OC
    1.6%, 7, -4.6, /, 0, 3, -4
CCCCN1CC(C)(C)[C@H](CC(=O)Nc2ccccc2)C1=O
    -2.2%, /, -1.4, /, 17, 4, -24
Cc1cccc(-n2c(CNC(=O)c3ccc(S(=O)(=O)N4CCCCC4)cc3)n[nH]c2=S)c1
    0.5%, -4, -5.5, -1%, -4, -17, 4
Cc1ccc2c(O)c(C)c(=O)[nH]c2n1
    -1.0%, 11, -2.5, -2%, 9, -14, -13
CC(=O)Nc1ccc(C(=O)OCc2ccccc2Br)cc1
    3.8%, -3, -3.8, 0%, 10, 3, 4
CC(C)c1ccc(N(CC(=O)O)S(=O)(=O)c2cccnc2)cc1
    2.3%, -2, 5.3, 7%, 5, -3, 4
O=C1CC(Cc2ccc(Cl)cc2)C(=O)N1c1cc(Cl)ccn1 (stereo unspecified)
    0.5%, -4, 0.6, 2%, -6, -1, 5
O=C1CCC(=O)N1CCc1c[nH]c2ccccc12
    -3.0%, 3, 1.8, 17%, 7, 0, 3
O=C(/C=C/c1ccc(Cl)cc1Cl)c1nc2ccccc2[nH]1
    3.9%, -4, -0.8, -1%, 8, -10, -5
Cc1ccc(S(=O)(=O)N2CCCOC2CNC(=O)C(=O)NCCc2c[nH]c3ccccc23)cc1 (stereo unspecified)
    -1.0%, 25, 1.3, 17%, -11, 24, -5
CCOc1ccc(N(CC(=O)NC2CC2)S(=O)(=O)c2ccc(C)cc2)cc1
    0.1%, -6, 0.8, 10%, 15, -4, 1
CC(C)c1ccc(/C=C/C(=O)NCCCc2ccccc2)cc1
    0.3%, -8, 1.3, 4%, 11, -11, -7
COc1ccc(CNC(=O)COC(=O)CC(NC(N)=O)c2ccc(Cl)cc2)cc1OC (stereo unspecified)
    0.3%, 6, -0.9, /, 0, -8, -1
Cc1cc(C)cc(C(=O)NC(CC(N)=O)c2ccc(NC3CCCC3)c([N+](=O)[O-])c2)c1 (stereo unspecified)
    7.3%, 20, -4.4, 7%, 2, -16, -1
COc1ccc2cc(S(=O)(=O)n3cnc(C)c3)ccc2c1
    2.5%, -14, 1.2, -6%, -2, 0, 1
COCCN(C(=O)CNC(=O)c1cccs1)C(C(=O)NC(C)(C)C)c1ccccc1 (stereo unspecified)
    -1.2%, 3, -5.7, 6%, 6, 1, 7
CN(C)c1ccc(-c2noc(C3CCN(C(=O)Nc4ccc(Cl)cc4)CC3)n2)cc1
    5.3%, 6, -1.0, 8%, 0, 1, -2
O=C(Nc1ccccc1)Nc1ccccn1
    8.4%[38.3 µM], -3&0, -4.8, 0%&2%, 0, 2, 7
Cc1ccc(-n2nnc3ccccc3c2=O)cc1C
    5.1%, 3, -2.1, -4%, 3, -7, 4
COC(=O)c1ccc(NC(=O)CN(c2ccc(C)cc2)S(=O)(=O)c2c(C)nn(C)c2C)cc1
    /, 0, 0.3, 1%, -1, -7, 2
Nc1ccc2nc3c(=O)[nH]c(=S)[nH]c3nc2c1
    1.6%, 9, 12, 8.9µM*, -79*, -9, /

# Ordered by the number under Six1-Eya2 blk (largest number first): some entries from above.
SMILES	PINK1 modulator	D2 agonist	Sfp inh	Six1-Eya2 blk	D2 potentiator	CtBP-E1A blk
COc1ccc2cc(S(=O)(=O)n3cnc(C)c3)ccc2c1	2.5%	1.2	-6%	-2	0	1
O=C1CC(Cc2ccc(Cl)cc2)C(=O)N1c1cc(Cl)ccn1 (stereo unspecified)	0.5%	0.6	2%	-6	-1	5
Nc1ccc2nc3c(=O)[nH]c(=S)[nH]c3nc2c1	1.6%	12	8.9µM*	-79*	-9	/

# The results go on.
# Each structure is followed by: PINK1 modulator, TRPV1 PAM, D2 agonist, Sfp inh, Six1-Eya2 blk, D2 potentiator, CtBP-E1A blk
O=C(CN1C(=O)/C(=C\C=C\c2ccccc2)SC1=S)Nc1ccc(F)cc1
    ?, 0, 0.9, -6%, -2, 6, 0
Cc1ccccc1C(=O)NNC(=O)CCC(=O)Nc1cccc(Cl)c1C
    1.9%, 5, -0.1, 13%, 5, 1, 10
COc1cccc(NC(=O)C(OC(=O)c2ccccc2NS(=O)(=O)c2cccs2)c2ccccc2)c1 (stereo unspecified)
    2.1%, 9, -5.7, 28%, -1, -6, 7
CCOc1cccc(CNCCCSc2ncccn2)c1
    0.5%, 7, -6.8, 10%, 3, -6, -11
CC1CN(c2ccc(NC(=S)Nc3ccc(N4CC(C)OC(C)C4)cc3)cc2)CC(C)O1 (stereo unspecified)
    1.1%, 7, -1.4, -14%, -1, -1, /
CSc1ccc(C2C(C#N)=C(N)Oc3cc4c(cc32)OCO4)cc1 (stereo unspecified)
    ?, 6, -2.0, -5%, -11, 1, 0
O=C(COC(=O)c1ccc([N+](=O)[O-])cc1)NCCC1=CCCCC1
    5.9%, /, -0.3, /, 2, 1, 6
C[C@]12c3[nH]c4ccc(Cl)cc4c3CCN1C(=O)[C@@H](CC(=O)NCCc1ccccn1)C[C@@H]2C(=O)N1CCOCC1
    1.0%, /, -0.7, /, -2, -4, 0
O=C(CCc1nnc(Cc2ccc(-c3ccccc3)cc2)o1)NCCc1cccnc1
    -0.3%, 12, 9.8, 12%, -3, 3, /
N=c1c2c(-c3ccccc3)c(-c3ccccc3)n(Cc3ccccc3)c2ncn1CCCO
    -3.1%[38.3 µM], 11, -3.3&-2.2, -67%, -3, -7, -4
COC(=O)C1=NN(C(=O)c2ccccc2)C(C)(O)C1 (stereo unspecified)
    -1.6%[38.3 µM], 1, -1.1, 12%, 4, -6, -1
COCC1CCCN(C(=O)c2ccc3oc(Cc4ccc(Cl)cc4)nc3c2)C1 (stereo unspecified)
    0.7%, -16, -0.5, -9%, 1, -6, 0
CC(=O)c1cccc(NC(=O)CSc2nc(=O)n(CCN3CCOCC3)c3c2CCC3)c1
    0.1%, 6, -5.7, /, -2, -22, 7
CCc1ccc(C(O)c2ncc(-c3cccc(C(F)(F)F)c3)[nH]2)cc1 (stereo unspecified)
    ?, /, 5.4, /, -6, -7, -26
CC(N=Cc1nc(-c2ccccc2)oc1O)c1ccccc1 (stereo unspecified)
    -1.9%, -26, 0.3, -6%, -11, 5, -22
CC1/C(=N/O)C(CN(C)C)C2CC1C2(C)C (stereo unspecified)
    -3.0%, 6, -3.4, 5%, 5, -11, -2
O=C(CSc1nnc(-c2ccc(F)cc2)o1)N1CCCCC1
    1.8%, -6, 2.4, 14%, 2, 2, 1
CC(C)(C)OC(=O)NC(Cc1ccccc1)C(=O)N1CCC(C(=O)NCC(=O)Nc2ccc(F)cc2)CC1 (stereo unspecified)
    0.1%, 22, -5.6, 15%, 0, -5, -2
CC(O)[C@@]1(O)CC[C@H]2[C@@H]3CC[C@H]4C[C@@H](O)CC[C@]4(C)C3=CC[C@@]21C (stereo partly specified)
    -0.3%, 19, 1.2, /, 8, -7, -22
Cc1cc(/C=C\c2ccccc2)nc2ccccc12
    9.7%, 2, -3.5, -14%, 11, -2, -11
C=CCn1c(C2CC(=O)N(c3ccc(C)cc3)C2)nc2ccccc21 (stereo unspecified)
    3.8%, -4, -4.5, 8%, -4, -14, -7
CC(C)OC(=O)/C(=C\c1cccnc1)NC(=O)c1ccccc1
    0.2%, -29, -1.5, 12%, 1, -1, 3
O=C(NCCCN1CCCCC1)C1CCC(=O)N1CCc1ccccc1 (stereo unspecified)
    3.2%, -2, -2.5, 10%, 5, -1, -3
Cc1cn(CCC(=O)Nc2ccccc2N2CCOCC2)c2ccccc12
    1.3%, -7, -4.3, -4%, -4, -4, -4
Cc1ccc(NC(=O)C(=O)NCc2ccc(/C=C(/C#N)C(=O)NCc3cccnc3)o2)cc1
    ?, 0, -1.7, 16%, 2, -1, 5
CCOC(=O)Cc1cnc(NC(=O)CSc2nc(C)cc(C)n2)s1
    1.5%, 7, -0.4, 4%, 3, 0, -20
O=C(CN1CCCc2ccccc21)N1CCc2ccccc21
    -0.7%, 15, -2.1, 5%, -2, -10, 1
Cc1nc(CCNC(=O)CC2C(=O)NCCN2Cc2ccccc2F)sc1C (stereo unspecified)
    0.7%, 3, -3.6, -8%, -1, 0, 0
Cc1cc(NC(=O)CC#N)n(-c2ccccc2)n1
    1.2%, 8, -0.8, 7%, -6, -10, -11
CC(Oc1ccccc1Cl)C(=O)/C=C/N(C)C (stereo unspecified)
    2.6%[38.3 µM], -3, -3.5, 6%, -6, -8, -9
CCCCNC(=O)c1nc2ncc(Br)cn2n1
    -8.3%[38.3 µM], -6, 4.9, 11%, 1, 2, 8
N=c1n(CCN2CCOCC2)c2ccccc2n1CC(=O)c1cccc([N+](=O)[O-])c1
    4.4%, -11, -1.1, 27%, 3, -6, 4
CCOC(=O)c1c(C)[nH]c(C)c1C(=O)CSc1nc2ccccc2n1CCOC
    0.2%, -3, 0.5, 7%, -8, -7, -5
Cc1cc(=O)oc2c(C)c(OC(C)C(=O)NCCCN3CCOCC3)ccc12 (stereo unspecified)
    0.5%, 12, 0.8, 18%, -4, 2, /
CCCNC(=O)C1(CC2CC(c3ccccc3)=NO2)CCN(C(=O)c2ccccc2)CC1 (stereo unspecified)
    -0.1%, 29, -1.6, /, 1, -15, 3
Cn1c(=O)c2c(nc(NCc3ccc4c(c3)OCO4)n2C)n(C)c1=O
    /, 0, 0.8, 15%, -15, 2, -2

# Compound activity from PubChem BioAssay.
